# Epigenetic derep – derepresses silenced GFP reporter in murine cells; murine LDR cells, GFP reporter derepression, 30 h; actives 0.2% (n = 280,000); Potency, µM (titrated, usually from 53.9 µM), without a hit: at the highest dose GFP activation, hits mostly activators; AID 1865; note: potency is the fitted concentration of half-maximal effect; % of control where 0% means no effect; nearly all actives have a fitted effect of over 60% in size
#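 Murine LDR cells bearing a silenced CMV-driven GFP reporter were exposed to compound for 30 h at 37 C. After PBS washes, GFP-positive cells (20-120 um objects) counted by laser-scanning microplate cytometry.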
# KinaseGlo FLuc – blocks Kinase-Glo luciferase, a counter-screen artifact | Q27757 | Kinase-Glo luciferase, ATP luminescence, 8 min | Potency, µM (series often up to 38.3 µM), without a hit: at the highest dose activity change, negative = inhibition, usual class: inhibitors | actives 0.28% (n = 200,000) | AID 1379; note: potency is the fitted concentration of half-maximal effect; % is set by controls: 0 for no effect and ±100 for the full control effect; nearly all actives have a fitted effect of over 60% in size
#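 Light output from Kinase-Glo luciferase with luciferin and 10 uM ATP in 50 mM imidazole pH 7.2, KCl, MgCl2, Tween 20, BSA; compound pin-delivered, 8-min ambient incubation, then luminescence read.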
# CBFb RUNX1 block – CBF-beta/RUNX1 interaction disruption. 230,000 tested, under 10 active. Potency, µM (highest dose often 59.8 µM), inactives show at the top dose activity, negative = inhibition, most hits filed as inhibitors. AID 1477. AlphaScreen CBFb-His/RUNX1-biotin binding, biochemical; note: % of control where 0% means no effect
#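 His-tagged CBF-beta and biotinylated RUNX1 (30 nM each) were premixed 20 min at room temperature, exposed to compound for 15 min, then given nickel-chelate and streptavidin AlphaScreen beads (50 ng each). After 90 min, AlphaScreen signal was read.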
# IMPase Li inh – IMPase inhibition in cells with lithium potentiation; Potency, µM (top dose mostly 59.4 µM), for the others: at the top dose activity, negative = IMPase inhibition, actives largely listed as inhibitors; CHO-M1 cells, IP1 TR-FRET (IP-One), carbachol + lithium; actives 0.35% (n = 210,000);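 note: IP1 builds up when IMPase is blocked and the TR-FRET signal falls; potency is the fitted concentration of half-maximal effect; plate controls were basal vehicle for no effect and high inhibitor control for full effect; nearly all actives have a fitted effect of over 50% in size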
#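 Test compounds were applied to CHO-M1 cells previously cultured for 16–30 h at 2000 per well. A small lithium amount accompanied them; after 30 min at 37C, IP1 was quantified by TR-FRET.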
# aGal spleen mod – inhibits or activates alpha-galactosidase in human spleen homogenate; actives 0.008% (n = 240,000); Potency, µM (doses to about 80 µM), for inactives: at the highest dose activity change, negative = inhibition, most hits filed as inhibitors; AID 2107; human spleen homogenate, 4MU-alpha-Gal fluorescence, 40 min;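 note: potency is the fitted concentration of half-maximal effect; 0% = enzyme with vehicle and -100% = no enzyme basal signal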
# Target sequence (P06280 32-429 limits assumed): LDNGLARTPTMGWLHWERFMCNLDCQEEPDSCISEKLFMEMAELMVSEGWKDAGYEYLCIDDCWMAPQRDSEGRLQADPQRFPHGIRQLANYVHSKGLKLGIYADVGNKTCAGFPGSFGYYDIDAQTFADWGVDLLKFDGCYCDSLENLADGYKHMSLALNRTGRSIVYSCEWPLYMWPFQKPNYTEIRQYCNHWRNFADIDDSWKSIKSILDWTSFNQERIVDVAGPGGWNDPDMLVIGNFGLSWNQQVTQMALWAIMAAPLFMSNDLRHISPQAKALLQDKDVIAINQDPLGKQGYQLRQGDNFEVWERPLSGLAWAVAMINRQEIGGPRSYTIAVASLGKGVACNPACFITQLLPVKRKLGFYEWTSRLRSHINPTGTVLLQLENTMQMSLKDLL
#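 Fluorogenic readout (Ex 365/Em 440 nm) of 4-methylumbelliferone released from 1 mM 4-MU-alpha-galactoside by spleen homogenate, 40 min at 37C, pH 5.0. Data normalized to no-enzyme and enzyme controls; Hill-equation AC50 from compound titrations.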
# LMNA splice mod – modulators of lamin A splicing | Potency, µM (doses to about 46.1 µM), for the others: at the top dose ratio change, negative = inhibition, most hits filed as inhibitors | AID 1487 | actives 0.01% (n = 200,000) | HeLa LMNA splicing GFP/RFP minigene ratio, 48 h; active = well fitted inhibition curve with a large enough effect in the signal ratio, with a control signal flat, not every such curve was filed as active; inconclusive = small, poorly fitted or top-dose-only effect, or effect the other way, or a change in a side signal; the % refers to the signal ratio; note: potency is the fitted concentration of half-maximal effect; % is set by controls: 0 for no effect and ±100 for the full control effect
#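 S3 HeLa stable clones carrying a lamin A-EGFP splicing minigene plus DsRed2 were seeded at 600 cells/well in Opti-MEM with 2% FBS, pin-dosed and incubated 48 h at 37°C. Acumen cytometry (488 nm) gave the GFP/RFP total-intensity ratio.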
# * = called active by the depositor; ? = inconclusive; . = no result given; [ ] = another dose, or the depositor's remark. Unless noted, calls come from the whole dose curve; as a rule, active = well fitted curve in the direction sought with a large enough effect; inconclusive = small, poorly fitted or top-dose-only effect, or another doubt; inactive = no such curve, though single readings can be large; an effect the other way counts as inactive or inconclusive.
(1) COc1ccccc1NC(=O)C1=C(C)N(c2ccccc2)C(=S)NC1c1cccc(C(F)(F)F)c1 (centres undefined)
(2) COc1ccc(C(C#N)Nc2ccccc2OC)cc1 (centres undefined)
(3) O=C1CCCC(=O)C1=C1SCCCS1
(4) Cc1nn(-c2c(Cl)cc(Cl)cc2Cl)c(=O)c2ccccc12
(5) Fc1ccc(C(c2nnnn2C2CCCC2)N2CCN(Cc3ccccc3)CC2)cc1 (centres undefined)
(6) CCCC1=C(C(=O)OCC)C(c2c(C)nn(-c3ccccc3)c2Cl)C(C#N)=C(N)O1 (centres undefined)
(7) CCCCSc1nnc2n(CCc3ccccc3)c(=O)c3c4c(sc3n12)COC(C)(C)C4
(8) Nc1nc(/C=C/c2ccc(F)cc2)nc(-c2ccccc2O)n1
(9) CCCCn1nnc(NC(=O)c2sc3cc(Cl)ccc3c2Cl)n1
Compound,1,2,3,4,5,6,7,8,9
Epigenetic derep,-7.3%,0.4%,1.1%,1.5%,1.8%,-1.1%,-0.7%,-1.0%,-3.0%
KinaseGlo FLuc,-1%,-6%,-4%,0%,.,1%,-2%,-2%,1%
CBFb RUNX1 block,-17%,6%,3%,-7%,1%,6%,5%,0%,1%
IMPase Li inh,21%[38.3 µM],-1%[38.3 µM],6%,12%[38.3 µM],.,12%[38.3 µM],6%[38.3 µM],4%,10µM*
aGal spleen mod,-8%,9%,3%,2%,8%,1%,1%,4%,3%
LMNA splice mod,?,8%,8%,9%,-1%,17%,7%,?,?

# A different layout for part of the listing above:
5) Fc1ccc(C(c2nnnn2C2CCCC2)N2CCN(Cc3ccccc3)CC2)cc1 (centres undefined)
  Epigenetic derep = 1.8%	KinaseGlo FLuc = .	CBFb RUNX1 block = 1%	IMPase Li inh = .	aGal spleen mod = 8%	LMNA splice mod = -1%
6) CCCC1=C(C(=O)OCC)C(c2c(C)nn(-c3ccccc3)c2Cl)C(C#N)=C(N)O1 (centres undefined)
  Epigenetic derep = -1.1%	KinaseGlo FLuc = 1%	CBFb RUNX1 block = 6%	IMPase Li inh = 12%[38.3 µM]	aGal spleen mod = 1%	LMNA splice mod = 17%
7) CCCCSc1nnc2n(CCc3ccccc3)c(=O)c3c4c(sc3n12)COC(C)(C)C4
  Epigenetic derep = -0.7%	KinaseGlo FLuc = -2%	CBFb RUNX1 block = 5%	IMPase Li inh = 6%[38.3 µM]	aGal spleen mod = 1%	LMNA splice mod = 7%

# Just Epigenetic derep, CBFb RUNX1 block and IMPase Li inh, for 4 of the compounds above:
entry | mol | Epigenetic derep | CBFb RUNX1 block | IMPase Li inh
6 | CCCC1=C(C(=O)OCC)C(c2c(C)nn(-c3ccccc3)c2Cl)C(C#N)=C(N)O1 (centres undefined) | -1.1% | 6% | 12%[38.3 µM]
7 | CCCCSc1nnc2n(CCc3ccccc3)c(=O)c3c4c(sc3n12)COC(C)(C)C4 | -0.7% | 5% | 6%[38.3 µM]
8 | Nc1nc(/C=C/c2ccc(F)cc2)nc(-c2ccccc2O)n1 | -1.0% | 0% | 4%
9 | CCCCn1nnc(NC(=O)c2sc3cc(Cl)ccc3c2Cl)n1 | -3.0% | 1% | 10µM*

# Exported with each value named: part of the list above
3	O=C1CCCC(=O)C1=C1SCCCS1
- Epigenetic derep: 1.1%
- KinaseGlo FLuc: -4%
- CBFb RUNX1 block: 3%
- IMPase Li inh: 6%
- aGal spleen mod: 3%
- LMNA splice mod: 8%

4	Cc1nn(-c2c(Cl)cc(Cl)cc2Cl)c(=O)c2ccccc12
- Epigenetic derep: 1.5%
- KinaseGlo FLuc: 0%
- CBFb RUNX1 block: -7%
- IMPase Li inh: 12%[38.3 µM]
- aGal spleen mod: 2%
- LMNA splice mod: 9%

# Some of the compounds tested, so the mix of outcomes need not match the whole.
